# High-throughput results (PubChem)
# FGF22 binding – binders of human FGF22 protein, primary screen, FGF22 synaptogenesis inhibitor project, biophysical, thermal shift, single point. 340,000 tested, 1.5% active. Fibroblast growth factor 22 (Homo sapiens), Q9HCT0. calls only at 9.99 µM. recombinant FGF22 thermal shift, SYPRO orange fluorescence; percent of sucrose octasulfate shift, DMSO zero. AID 651658, 2012;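 active means melting point raised past a set limit in the mean and every replicate; three in four hits are not shown here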
# Target sequence (Q9HCT0 whole entry, looked up): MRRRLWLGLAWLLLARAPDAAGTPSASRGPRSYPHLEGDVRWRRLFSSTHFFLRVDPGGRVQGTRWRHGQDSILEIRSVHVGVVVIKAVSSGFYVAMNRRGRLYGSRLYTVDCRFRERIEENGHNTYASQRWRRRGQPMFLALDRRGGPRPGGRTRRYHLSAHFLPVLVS
# MLL AF4-AF9 inh – inhibitors of AF4 peptide binding to AF9, primary screen, biochemical, AlphaScreen, biotin-AF4 peptide, FLAG-AF9, single point | Protein AF-9 (Homo sapiens), P42568 | inhibition, % at 10 µM | 350,000 tested, 0.47% active | AID 651704, 2012;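 active means every replicate reaching a set inhibition limit, whatever the replicate mean, cut at about 25% in these data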;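 further: 0% = plate neutral control median and 100% = total signal loss; the record names both 10 and 1 µM as test concentration; the first replicate is given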
# Target sequence (P42568 whole entry, looked up): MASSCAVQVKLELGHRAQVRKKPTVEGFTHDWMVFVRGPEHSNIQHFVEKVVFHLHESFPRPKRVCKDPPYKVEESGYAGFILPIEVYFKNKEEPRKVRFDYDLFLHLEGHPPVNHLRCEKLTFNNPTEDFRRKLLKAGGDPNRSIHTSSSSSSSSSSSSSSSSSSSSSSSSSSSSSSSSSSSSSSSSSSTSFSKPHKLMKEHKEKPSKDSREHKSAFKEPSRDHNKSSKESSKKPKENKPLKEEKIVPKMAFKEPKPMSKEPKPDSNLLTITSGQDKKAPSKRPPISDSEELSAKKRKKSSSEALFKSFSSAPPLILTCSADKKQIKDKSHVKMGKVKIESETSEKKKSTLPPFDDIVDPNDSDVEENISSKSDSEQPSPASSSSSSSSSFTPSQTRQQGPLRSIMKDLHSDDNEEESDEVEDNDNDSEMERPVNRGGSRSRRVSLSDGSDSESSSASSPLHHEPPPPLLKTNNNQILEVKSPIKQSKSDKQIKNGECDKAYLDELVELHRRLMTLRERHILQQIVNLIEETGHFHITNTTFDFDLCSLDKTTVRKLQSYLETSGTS
# * = called active by the depositor; i = inactive.
# Start of the data: the first 3 entries as a preview:
1) CCOC(=O)[C@@H](NC(=O)/C=C/[C@H]1O[C@@H](n2cc(C)c(=O)[nH]c2=O)C[C@@H]1O)C(C)C
2) Nc1cc([N+](=O)[O-])ccc1OCc1ccccc1
3) O=C(c1ccc(F)cc1)N1CCCCN2[C@H](CO)[C@@H](c3ccc(-c4ccc(F)cc4)cc3)[C@H]2C1
assay / entry | 1 | 2 | 3
FGF22 binding | i | i | i
MLL AF4-AF9 inh | -1.7 | 1.7 | 7.8

# This part in full, from the first entry:
1) CCOC(=O)[C@@H](NC(=O)/C=C/[C@H]1O[C@@H](n2cc(C)c(=O)[nH]c2=O)C[C@@H]1O)C(C)C
2) Nc1cc([N+](=O)[O-])ccc1OCc1ccccc1
3) O=C(c1ccc(F)cc1)N1CCCCN2[C@H](CO)[C@@H](c3ccc(-c4ccc(F)cc4)cc3)[C@H]2C1
4) C=CCN1C(=O)[C@@]2(O[C@@H](CCn3cc([C@H](O)c4ccccc4)nn3)[C@H]([Si](C)(C)c3ccc(OC)cc3)[C@H]2C)c2cc(N3C(=O)c4cccc5cccc3c45)ccc21
5) COc1cc2c(cc1OC)CN(C(=O)[C@@H]1[C@H]3C(=O)O[C@H](c4ccccc4)[C@H](c4ccccc4)N3[C@H](c3ccccc3OCCO)[C@@]13C(=O)Nc1ccc(C#CC4(O)CCCCCC4)cc13)CC2
6) O=C1CCN(Cl)C(=O)N1Cl
7) COCC#Cc1ccc(CC[C@H]2O[C@H]3CC[C@H](CO)O[C@H]3C[C@H]2n2cc(C3(O)CCCC3)nn2)cc1
8) C=CC[C@@]12N=C(c3ccc(OCCCO)cc3)O[C@@H]1c1ccccc1CN(CCS(=O)(=O)c1ccccc1)C2=O
9) CCN(CC)S(=O)(=O)c1ccc(N2CCOCC2)c(NS(=O)(=O)c2ccc(Cl)s2)c1
10) CCCC[C@@H](O)C1=C(COc2ccccc2)C[C@H]2C(=O)N(Cc3ccccc3)C(=O)[C@H]2[C@H]1CO
assay / entry | 1 | 2 | 3 | 4 | 5 | 6 | 7 | 8 | 9 | 10
FGF22 binding | i | i | i | i | i | i | i | i | i | i
MLL AF4-AF9 inh | -1.7 | 1.7 | 7.8 | -1.6 | -0.3 | -1.5 | -1.7 | 8.5 | -6.7 | -0.3

11) C=CCNC(=O)[C@H]1[C@@H]2C(=O)O[C@@H](c3ccccc3)[C@@H](c3ccccc3)N2[C@@H](c2ccccc2OCCO)[C@]12C(=O)Nc1ccc(C#CCC(C(=O)OC)C(=O)OC)cc12
12) Cc1ncc(C(O)c2ccccc2)n1Cc1ccccc1 (centres undefined)
13) CC1=C(C(=O)N(C)C)CC(CC(=O)NCC2CCCCC2)C(=O)N1Cc1ccccc1 (centres undefined)
14) CNc1cccc(-c2ccc(C(C)=O)s2)n1
15) Cc1onc(-c2ccccc2)c1C(=O)N1CCC(C)(C(=O)NS(=O)(=O)C2CC2)C1 (centres undefined)
16) O=C(NC1CCCCC1)C1c2ccccc2OCC(=O)N1CCc1ccccc1 (centres undefined)
17) O=C1O[C@@H](c2ccccc2)[C@@H](c2ccccc2)N2[C@@H](c3ccccc3OCCO)[C@]3(C(=O)Nc4ccc(C#CC5=CCCCC5)cc43)[C@@H](C(=O)N3CCCCCCC3)[C@H]12
18) COc1ccc2[nH]c3c(c(=O)c2c1)CCCC3
19) CCOC(=O)C(=NO)C1=CSC2=NNC(C)(C)N12
20) OC[C@@H]1[C@@H](c2ccc(C3=CCCC3)cc2)[C@@H]2CN(CCC(F)(F)F)CCCCN12
assay / entry | 11 | 12 | 13 | 14 | 15 | 16 | 17 | 18 | 19 | 20
FGF22 binding | i | i | i | i | i | i | i | i | i | i
MLL AF4-AF9 inh | -1.1 | -0.3 | -1.2 | -11 | -3.5 | 1.6 | -2.5 | -5.2 | 3.1 | 6.2

21) S=C1NCCN1CC1CCN(CCC23CC4CC(CC(C4)C2)C3)CC1
22) O=C(NCCCn1cccn1)c1cc(COc2ccccc2)on1
23) CCOC(=O)C1(C)CCN1C(=O)c1ccccc1OC(F)(F)F (centres undefined)
24) COc1ccc(COC[C@]23N=C4Sc5ccc([N+](=O)[O-])cc5C(=O)N4[C@H](c4ccccc4O2)[C@H]3CO[Si](C)(C)C(C)(C)C)cc1
25) COCCOC(=O)N1C(=O)[C@@]2(c3ccccc31)[C@H](C(=O)N1CCN(c3ncccn3)CC1)[C@H]1C(=O)O[C@H](c3ccccc3)[C@H](c3ccccc3)N1[C@@H]2c1ccccc1OCCO
26) COc1ccccc1NC(=O)COC(=O)c1ccc2c(=O)n3c(nc2c1)CCC3
27) O=C(C1=C[C@@H](c2coc3ccccc3c2=O)C[C@@H](OCCCCO)O1)N1CCCCCCC1
28) COc1ccc([Si](C)(C)[C@H]2[C@H](CCO)O[C@@]3(C(=O)N(Cc4cccc(N5CCCCC5=O)c4)c4ccccc43)[C@@H]2C)cc1
29) CC(C)[C@@H]1C=C(C(=O)O)O[C@H](OCc2ccc(CO)cc2)C1
30) COC(=O)C(CC#Cc1ccc2c(c1)[C@]1(C(=O)N2)[C@H](c2ccc(O)cc2)N2[C@H](c3ccccc3)[C@H](c3ccccc3)OC(=O)[C@H]2[C@@H]1C(=O)N1CCc2cc(OC)c(OC)cc2C1)C(=O)OC
assay / entry | 21 | 22 | 23 | 24 | 25 | 26 | 27 | 28 | 29 | 30
FGF22 binding | i | i | i | i | i | i | i | i | i | i
MLL AF4-AF9 inh | 3.6 | -0.7 | 0.5 | -3.2 | 0.7 | -2.8 | -0.7 | 4.1 | -12 | 0.3

31) CC(C)(C)S(=O)N1Cc2cc(C(=O)NCCCN3CCOCC3)nc(-c3cccc(-c4cccc(F)c4)c3)c2[C@@H]1CCO (some centres undefined)
32) CCS(=O)(=O)N[C@@H]1CC[C@@H](CC(=O)NCC2CC2)O[C@H]1CO
33) c1ccc(Sc2ccncc2)cc1
34) COc1cc2c(cc1OC)CN(C(=O)[C@H]1[C@@H]3C(=O)O[C@@H](c4ccccc4)[C@@H](c4ccccc4)N3[C@@H](c3ccccc3OCCO)[C@]13C(=O)Nc1ccc(C#CC4(O)CCCCCC4)cc13)CC2
35) C=CCOC(=O)[C@H]1[C@@H]2C(=O)O[C@@H](c3ccccc3)[C@@H](c3ccccc3)N2[C@@H](c2ccc(OCCOC(=O)[C@H]3C[C@H]4C(=O)N5CCC[C@H]5C(=O)N4[C@H]3c3cccc(OCCO)c3)cc2)[C@]12C(=O)Nc1ccccc12
36) COc1cc(C(O)c2nc(-c3cccs3)cs2)ccc1F (centres undefined)
37) COc1ccc(NC(=O)c2cc(C3CCCCN3C(=O)c3ccc4c(c3)CCO4)on2)c(C)c1 (centres undefined)
38) COC(=O)C(CC#Cc1ccc2c(c1)[C@]1(C(=O)N2)[C@H](c2ccc(OCCO)cc2)N2[C@H](c3ccccc3)[C@H](c3ccccc3)OC(=O)[C@H]2[C@@H]1C(=O)NC[C@H](O)c1ccccc1)C(=O)OC
39) COCCOC(=O)N1C(=O)[C@@]2(c3cc(C#CC4(O)CCCCCC4)ccc31)[C@H](C(=O)N1CCN(c3ncccn3)CC1)[C@H]1C(=O)O[C@H](c3ccccc3)[C@H](c3ccccc3)N1[C@@H]2c1ccccc1OCCO
40) O=C(NCCO)c1cccc(-c2cccc3nncn23)c1
assay / entry | 31 | 32 | 33 | 34 | 35 | 36 | 37 | 38 | 39 | 40
FGF22 binding | i | i | i | i | i | i | i | i | i | i
MLL AF4-AF9 inh | 0.3 | -2.2 | 1.4 | -0.6 | -0.3 | -1.5 | -0.1 | -1.8 | -0.3 | -0.5

# Part of the list above in order of molecular weight, highest first.
4) C=CCN1C(=O)[C@@]2(O[C@@H](CCn3cc([C@H](O)c4ccccc4)nn3)[C@H]([Si](C)(C)c3ccc(OC)cc3)[C@H]2C)c2cc(N3C(=O)c4cccc5cccc3c45)ccc21
31) CC(C)(C)S(=O)N1Cc2cc(C(=O)NCCCN3CCOCC3)nc(-c3cccc(-c4cccc(F)c4)c3)c2[C@@H]1CCO (some centres undefined)
10) CCCC[C@@H](O)C1=C(COc2ccccc2)C[C@H]2C(=O)N(Cc3ccccc3)C(=O)[C@H]2[C@H]1CO
13) CC1=C(C(=O)N(C)C)CC(CC(=O)NCC2CCCCC2)C(=O)N1Cc1ccccc1 (centres undefined)
15) Cc1onc(-c2ccccc2)c1C(=O)N1CCC(C)(C(=O)NS(=O)(=O)C2CC2)C1 (centres undefined)
2) Nc1cc([N+](=O)[O-])ccc1OCc1ccccc1
18) COc1ccc2[nH]c3c(c(=O)c2c1)CCCC3
assay / entry | 4 | 31 | 10 | 13 | 15 | 2 | 18
FGF22 binding | i | i | i | i | i | i | i
MLL AF4-AF9 inh | -1.6 | 0.3 | -0.3 | -1.2 | -3.5 | 1.7 | -5.2

# Some of these compounds in order of the MLL AF4-AF9 inh value, lowest first.
nr	mol	MLL AF4-AF9 inh
38	COC(=O)C(CC#Cc1ccc2c(c1)[C@]1(C(=O)N2)[C@H](c2ccc(OCCO)cc2)N2[C@H](c3ccccc3)[C@H](c3ccccc3)OC(=O)[C@H]2[C@@H]1C(=O)NC[C@H](O)c1ccccc1)C(=O)OC	-1.8
40	O=C(NCCO)c1cccc(-c2cccc3nncn23)c1	-0.5
31	CC(C)(C)S(=O)N1Cc2cc(C(=O)NCCCN3CCOCC3)nc(-c3cccc(-c4cccc(F)c4)c3)c2[C@@H]1CCO (some centres undefined)	0.3

# Other records.
41) CC(C)CC1C(=O)N(Cc2cn(Cc3ccco3)nn2)CCS(=O)(=O)N1Cc1ccc(-c2ccc(Cl)c(Cl)c2)cc1 (centres undefined)
42) Cc1ccc(S[C@]2(C(=O)NC(C)C)CC(=O)N(C3CCCCC3)[C@@H]2c2ccc(CO)cc2I)cc1
43) COc1cc(N(C(C)=O)c2ccc(O)cc2)c2ncccc2c1
44) C[C@@H]1CN([C@H](C)CO)C(=O)c2cccc(NC(=O)Nc3cccc4ccccc34)c2O[C@@H]1CN(C)C(=O)Nc1ccc(C(F)(F)F)cc1
45) COc1ccc(OC)c(S(=O)(=O)NC(=O)C2(C)CCN2C(=O)C2(c3ccc(Cl)cc3)CC2)c1 (centres undefined)
46) COc1ccc(C=NN(C)C(=O)Nc2cccc(Cl)c2)cc1OC
47) O=C1[C@H]2[C@@H](c3ccc(C(F)(F)F)cc3)N[C@]3(CCCN(Cc4ccccc4)C3=O)[C@H]2C(=O)N1Cc1ccccc1
48) O=C1C=CCCN1C(=O)/C=C/c1cccc(C(F)(F)F)c1
49) O=C(N/C=C/n1cnc2cc(C(F)(F)F)ccc21)c1ccc(F)cc1
50) CSc1ncnc2c1ncn2CCCNCCCN1CCCC1=O
assay / entry | 41 | 42 | 43 | 44 | 45 | 46 | 47 | 48 | 49 | 50
FGF22 binding | i | i | i | i | i | i | i | i | i | i
MLL AF4-AF9 inh | -2.7 | 0.2 | 2.9 | 4.8 | -0.5 | -0.9 | -11 | -0.4 | -0.6 | 1.9

51) CC1(C(=O)NS(=O)(=O)c2cccc(F)c2)CCN1C(=O)c1ccccc1 (centres undefined)
52) CCN(CC(=O)Nc1c(F)cccc1F)C(=O)c1ccc(OC)c(S(=O)(=O)NC2CCCC2)c1
53) CCOC(=O)[C@]12CCC=C1N(Cc1cccc3ccccc13)C(=O)[C@H](CC(=O)NCC13CC4CC(CC(C4)C1)C3)C2
54) COCCOC(=O)N1C(=O)[C@@]2(c3ccccc31)[C@H](c1ccccc1OCCO)N1[C@H](c3ccccc3)[C@H](c3ccccc3)OC(=O)[C@H]1[C@@H]2C(=O)NC[C@H](O)c1ccccc1
55) CCO[C@@H]1OC(C(=O)N2CCN(C)CC2)=C[C@H](c2ccccc2)[C@H]1CCCO
56) COc1cc(NC(=O)CN2CCN(C(=O)c3ccco3)CC2)c(C)cc1[N+](=O)[O-]
57) CC(C)CC1C(=O)N(Cc2cn(CCC3OCCO3)nn2)CCS(=O)(=O)N1Cc1ccc(-c2ccc(F)nc2)cc1 (centres undefined)
58) CC(=NNc1cc(C)c2cc(C)ccc2n1)c1ccccn1
59) COc1ccc(S(=O)(=O)N2CCN(Cc3cccc(OCCO)c3)CC2)cc1
60) CSC1=NN(c2ccccc2)CN(c2ccccc2)N1C
assay / entry | 51 | 52 | 53 | 54 | 55 | 56 | 57 | 58 | 59 | 60
FGF22 binding | i | i | i | i | i | i | i | i | i | i
MLL AF4-AF9 inh | -3.2 | -5.2 | 1.3 | 1.8 | -1.1 | -0.1 | -0.7 | 14 | 7.9 | 11

61) CC1=C(C(=O)N(C)C)CC(CC(=O)NCCN2CCOCC2)C(=O)N1CCC1=CCCCC1 (centres undefined)
62) Cc1ccc(S(=O)(=O)N2CCCCC2)cc1NC(=O)CN1CCCC1c1cccs1 (centres undefined)
63) COC1(C)CN(Cc2ccccc2Br)[C@H](/C=C/c2ccccc2)[C@H](Cc2ccccc2)O1 (some centres undefined)
64) Cc1ccccc1S(=O)(=O)N1CCCCN2[C@H](C1)[C@H](c1ccc(-c3ccccc3)cc1)[C@@H]2CO
65) C[C@H](CO)N1C[C@H](C)[C@H](CN(C)S(=O)(=O)c2cccs2)Oc2ccc(NC(=O)Cc3ccccc3)cc2CC1=O
66) C#CCN1C=CC(=O)[C@@H](OC(=O)Nc2ccc(Br)cc2)[C@H]1c1ccccc1Br
67) CCOc1ccccc1-c1ccc(C(=O)NCc2ccc(Cl)cc2)o1
68) CCCCCC(=O)N1C[C@@H](O)[C@H](n2cc(C3CC3)nn2)C[C@@H]1c1ccc(Cl)cc1
assay / entry | 61 | 62 | 63 | 64 | 65 | 66 | 67 | 68
FGF22 binding | i | i | i | i | i | i | i | i
MLL AF4-AF9 inh | -4.2 | 4.0 | 0.7 | -5.2 | 1.7 | -2.5 | 2.3 | 1.5

# An excerpt; rates above refer to the full screens.
